# High-throughput results as filed in PubChem BioAssay.
# HNF4A DNA FP – change in binding of human HNF4A to DNA, primary screen, biochemical, fluorescence polarization, FITC-DNA; Hepatocyte nuclear factor 4-alpha (Homo sapiens), P41235; 1 h; activity change, % at 10 µM; 360,000 compounds, 0.3% hits; in the data active = activity change above about 30%, passing the limit was not always enough;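 also: controls were the assay level and a saturating level of protein; the project sought stronger binding though the title names inhibitors; some compounds called inactive have numbers as strong as hits; positive values seem to mean higher polarization but the record does not say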
# Target sequence (P41235 whole entry, looked up): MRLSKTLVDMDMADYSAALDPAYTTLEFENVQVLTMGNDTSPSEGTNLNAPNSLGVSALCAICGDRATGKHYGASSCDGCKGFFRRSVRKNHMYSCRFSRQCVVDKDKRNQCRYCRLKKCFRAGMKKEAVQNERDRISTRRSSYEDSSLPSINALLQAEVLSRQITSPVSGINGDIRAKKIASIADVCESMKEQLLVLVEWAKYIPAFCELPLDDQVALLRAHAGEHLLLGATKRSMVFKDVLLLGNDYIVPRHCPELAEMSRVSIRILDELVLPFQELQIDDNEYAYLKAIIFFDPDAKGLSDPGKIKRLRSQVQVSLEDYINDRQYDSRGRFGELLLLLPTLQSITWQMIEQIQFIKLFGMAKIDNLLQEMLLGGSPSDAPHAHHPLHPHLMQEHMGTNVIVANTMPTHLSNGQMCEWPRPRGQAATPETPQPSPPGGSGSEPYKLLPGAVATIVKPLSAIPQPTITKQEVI
# UCH37 DUB inh – inhibitors of human UCH37 deubiquitinase, primary screen, biochemical, Ub-AMC cleavage, fluorescence. Ubiquitin carboxyl-terminal hydrolase isozyme L5 (Homo sapiens), Q9Y5K5. purified proteasome/UCH37. inhibition, % (concentration not given with the values). 330,000 compounds, 0.33% hits. AID 588478, 2011;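 active = mean of two replicates above 20%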;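 also: 0% = compound-free wells with enzyme and 100% = wells lacking proteasome; stock transfer was 100 nL into about 20 µL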
#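 Assay system: Proteasome-bound UCH37. Buffer or medium: pH 7.4 Tris-HCl (50 mM) with ovalbumin, ATP-MgCl2, DTT. Incubation: 30 min preincubation with enzyme, 25 min cleavage at room temperature. Measured by: fluorescence, ex 355 nm, em 460 nm. Read-out basis: percent inhibition. Control set: wells without proteasome as full block, compound-free enzyme plus substrate as uninhibited.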
# B2AR ag – beta2AR agonists driving receptor internalization, primary screen, cell-based, FAP fluorogen, flow cytometry; response, % (test concentration not listed); 340,000 compounds, 0.43% hits; Am2.2-beta2AR cells; reference of the scale not given here;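 active = response above a set limit, near 3 SD of response in nonfluorescent compounds, cut at about 42% in these data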;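 also: stock transfer was 100 nL into about 11 µL; a reference agonist was the positive control; negative values mostly stem from fluorescent compounds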
# Target sequence (P07550 whole entry, looked up): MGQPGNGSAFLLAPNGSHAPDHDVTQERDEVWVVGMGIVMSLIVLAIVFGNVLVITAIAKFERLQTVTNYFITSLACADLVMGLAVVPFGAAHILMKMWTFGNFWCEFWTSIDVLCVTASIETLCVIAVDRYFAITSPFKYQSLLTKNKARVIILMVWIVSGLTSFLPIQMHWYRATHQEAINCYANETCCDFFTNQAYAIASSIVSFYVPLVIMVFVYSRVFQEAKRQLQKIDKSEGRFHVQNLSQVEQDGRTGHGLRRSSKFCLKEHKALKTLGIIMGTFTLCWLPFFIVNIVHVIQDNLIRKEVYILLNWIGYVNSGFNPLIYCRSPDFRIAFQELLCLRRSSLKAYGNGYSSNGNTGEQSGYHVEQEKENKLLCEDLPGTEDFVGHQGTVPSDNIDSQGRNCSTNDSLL
# E coli growth – E. coli growth inhibition, primary screen, OD600; 330,000 compounds, 0.21% hits; Escherichia coli growth, 23 h; hits give low values; OD600 absorbance (test concentration not listed);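 active = OD600 absorbance below the run mean of sample wells minus 3.6 SD, in any replicate, cut at about 0.56 in these data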;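 also: stock transfer was 300 nL into about 60 µL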
# An asterisk follows results filed as active; nt = no result given; & = joins results of further samples. Some of the compounds tested (hit frequency here may not be typical).
smiles	HNF4A DNA FP	UCH37 DUB inh	B2AR ag	E coli growth
O=C(O)C1=CC(c2csc3ccccc23)CC(OCc2ccc(CO)cc2)O1 (stereo unspecified)	nt	nt	nt	0.69&0.7
O=[N+]([O-])c1ccc(OCc2cn(C(CO)c3ccccc3)nn2)c(Br)c1 (stereo unspecified)	nt	nt	nt	0.61
CC(C)CC(CSc1ccc(Br)cc1)N1CCN(C)CCC1=O (stereo unspecified)	nt	nt	nt	0.64
O=C1C2CC3CCC2(O3)C2OCCCN12 (stereo unspecified)	nt	nt	nt	0.67
C#CCNC(=O)C1=CC(C(C)(C)C)CC(OCCCCO)O1 (stereo unspecified)	nt	nt	nt	0.67
CCOC1OC(C(N)=O)=CC(c2cn(C(C)=O)c3ccccc23)C1CCCO (stereo unspecified)	nt	nt	nt	0.7
Cc1ccsc1C=C1SC(=O)N(CC(=O)N2CCOCC2)C1=O	nt	nt	nt	0.71
COC(=O)C(Cc1ccccc1)NC(=O)Nc1ccc(S(N)(=O)=O)cc1 (stereo unspecified)	nt	nt	nt	0.71
COC(=O)C1=C(C(=O)OC)C2N(C)c3ccccc3[C@@]23CC(C(=O)OC)N(C(=O)c2cccs2)C3=N1 (stereo partly specified)	nt	nt	nt	0.71
CN1CC2C3C(=O)N(Cc4ccccc4)C(=O)C3[C@](Cc3ccccc3)(C1=O)N2C(=O)c1ccc(Cl)cc1 (stereo partly specified)	nt	nt	nt	0.67
CC[C@@]12C(=O)N(c3ccccc3)C(=O)N1C(c1ccc(Br)cc1)C1C(=O)N(C(C)(C)C)C(=O)C12 (stereo partly specified)	nt	nt	nt	0.65
CC1(C)c2[nH]c3ccccc3c2CC2C(=O)N(Cc3ccccc3Cl)C(=O)N21 (stereo unspecified)	nt	nt	nt	0.68
COc1ccc(CN2Cc3cccc4c3C(CC2=O)C(O)C(O)C4)cc1 (stereo unspecified)	nt	nt	nt	0.7
CCN1C(=O)C2C(c3ccc(-c4cc(C(C)=O)cs4)cc3)N3CCC[C@@]3(C(=O)OC)C2C1=O (stereo partly specified)	nt	nt	nt	0.65
COC(=O)c1ccccc1NC=C1CCc2c(c(C)nn2-c2ccccn2)C1=O	nt	nt	nt	0.73
COc1ccc(C2C=CCN(C(=O)OCc3ccccc3)CC(=O)N2Cc2ccc(F)cc2)cc1 (stereo unspecified)	nt	nt	nt	0.71
CC1OC(OC2CC[C@@]3(C)C(CC[C@]4(C)C3C=CC3=C5CC(C)(C)CC[C@]5(CO)C(O)C[C@]34C)[C@]2(C)CO)C(O)C(OC2OC(CO)C(O)C(O)C2O)C1O (stereo partly specified)	nt	nt	nt	0.66
CN(CC(Cc1ccccc1)N(CC(Cc1ccccc1)N(CC1(c2ccccc2)CC1)N=O)N=O)N=O (stereo unspecified)	nt	nt	nt	0.73
CC1CC=CC2C1C(=O)N(Cc1ccccc1)C2c1ccc(C(F)(F)F)cc1 (stereo unspecified)	nt	nt	nt	0.68
CCN1C(=O)NC(c2ccco2)C(C(C)=O)=C1C (stereo unspecified)	nt	nt	nt	0.65

# Later entries
smiles	HNF4A DNA FP	UCH37 DUB inh	B2AR ag	E coli growth
COC(=O)c1ccc(N2NC(=O)C(=Cc3ccc(-c4ccc(Cl)c(C(=O)O)c4)o3)C2=O)cc1	nt	nt	nt	0.68
Cc1noc(C)c1NC(=O)Nc1ccc2c(c1)C(=O)N(C(C)CO)CC(C)C(CN(C)C(=O)NC(C)C)O2 (stereo unspecified)	nt	nt	nt	0.69
NC(=NOC(=O)c1cc(Br)ccc1Cl)c1cccnc1	nt	nt	nt	0.7
COc1ccccc1C=CC(=O)Oc1cccc2cccnc12	nt	nt	nt	0.67
CCOC(=O)C1C2COc3ccc(OC)cc3C2N2C(=O)C(C)NC(=O)[C@@]12C (stereo partly specified)	nt	nt	nt	0.72
Cc1cc(=O)oc(C)c1C(=O)n1nc(C)c2c1CC1C2C1(C)C (stereo unspecified)	nt	nt	nt	0.64
CC=CC(=O)Nc1cccc(C2=NOC3(C2)CC(C(N)=O)N(C(=O)c2ccccc2)C3)c1 (stereo unspecified)	nt	nt	nt	0.72
COC(=O)C1=C(C(=O)OC)C2N(C)c3ccc(OC)cc3[C@@]23CC(C(=O)OC)N(C(=O)NCCBr)C3=N1 (stereo partly specified)	nt	nt	nt	0.73
CCC1OC(=O)C(C)C(OC2C[C@@](C)(OC)C(O)C(C)O2)C(C)C(OC2OC(C)CC(N(C)C)C2O)[C@](C)(O)CC(C)C(=NOCOCCOC)C(C)C(O)[C@]1(C)O (stereo partly specified)	nt	nt	nt	0.58&0.55
COc1ccc2c(c1)C(=O)N1C3c4cc(C)ccc4OCC3C(c3ccccc3)[C@]1(C)C(=O)N2 (stereo partly specified)	nt	nt	nt	0.71
CC(NC(=O)c1nc[nH]c1C(=O)NCCCCCNC(=O)OC(C)(C)C)c1ccccc1 (stereo unspecified)	nt	nt	nt	0.7&0.69
CC1CN(C(C)CO)C(=O)c2cccc(NS(=O)(=O)c3ccc(F)cc3)c2OC1CN(C)C(=O)Nc1ccccc1 (stereo unspecified)	nt	nt	nt	0.68
O=C(C=Cc1cccs1)N1CCC2(CC1)Oc1ccc(F)cc1C(=O)C21CC(c2ccc(Cl)cc2)=NO1 (stereo unspecified)	nt	nt	nt	0.72
CC1CN(C(C)CO)C(=O)c2cccc(NC(=O)Nc3ccc(C(F)(F)F)cc3)c2OC1CN(C)C(=O)NC1CCCCC1 (stereo unspecified)	nt	nt	nt	0.7
CCOC(=O)C=Cc1ccc(C(F)(F)F)cc1S(=O)(=O)NC(C)(C)C	nt	nt	nt	0.68
COc1cc(CCCN2C(=O)C(=O)NCC2C(C)O)cc(OC)c1OC (stereo unspecified)	nt	nt	nt	0.67
NC(=O)C1=CC(c2csc3ccccc23)CC(OCc2ccc(CO)cc2)O1 (stereo unspecified)	nt	nt	nt	0.65&0.64
CCOC(=O)C1C2COc3ccc(C)cc3C2N2C(=O)C(CO)NC(=O)[C@@]12C (stereo partly specified)	nt	nt	nt	0.65
O=C(NCc1ccccc1)C1=CC(c2ccccc2)CC(OCc2ccc(CO)cc2)O1 (stereo unspecified)	nt	nt	nt	0.68&0.72
CCOC1=NC(C(=O)O)c2ccccc2C(=C(C)Cl)N1 (stereo unspecified)	nt	nt	nt	0.68

# The list continues:
smiles	HNF4A DNA FP	UCH37 DUB inh	B2AR ag	E coli growth
COc1ccc(C2CC(=O)C=C(c3cc(C=O)ccc3OC)C2)cc1OC (stereo unspecified)	nt	nt	nt	0.69
Nc1ncnc2c1ncn2C1CC(O)C(COP(=O)(O)O)O1 (stereo unspecified)	nt	nt	nt	0.72
COc1ccc(C2CC=C(C(=O)O)C(c3ccccc3)N2S(=O)(=O)c2ccccc2C)cc1 (stereo unspecified)	nt	nt	nt	0.65
O=S1(=O)CCOCC(Cc2ccccc2)N1Cc1ccccc1Br (stereo unspecified)	nt	nt	nt	0.68
CCC(C)C(C(=O)NCCCCCCCCCCC(=O)N1CCNCC1)n1cc(CCCCN=C(N)N)nn1 (stereo unspecified)	nt	nt	nt	0.68
CCN1C(=NCC(C)C)NC(CCc2ccccc2)C(C(=O)NCC(C)C)C1C (stereo unspecified)	nt	nt	nt	0.67
COc1ccc(C=Cc2nc(-c3ccccc3O)n(-c3ccccc3)n2)cc1	nt	nt	nt	0.71
CSC1=NC(C)(C)C=C(C=Cc2c(Cl)cccc2Cl)N1	nt	nt	nt	0.72
CC(C)Oc1cc(C(=O)N2CCC(N3CCCCC3)CC2)ccc1Nc1nnc(Cl)c(Nc2ccccc2S(C)(=O)=O)n1	nt	1.3	11	nt
CCCS(=O)(=O)NC(=O)C1(C)CCCN(C(=O)c2ccc(F)cc2Cl)C1 (stereo unspecified)	3.0	nt	nt	nt
CCCS(=O)(=O)NC(=O)C1(C)CCN(C(=O)Cc2cccc3ccccc23)C1 (stereo unspecified)	0.8	nt	nt	nt
OCCN(Cc1ccccn1)Cc1ccccn1	-0.7	nt	nt	nt
O=C(c1ccoc1)N1CCN(c2cc(-c3ccccc3)nc3cc(-c4ccc(Br)cc4)nn23)CC1	-4.0	nt	nt	nt
Cc1ccc(NC(=O)c2ncn(CCCNCC3CCCCC3)n2)cc1C	-2.7	nt	nt	nt
OC(c1ccc(F)c(F)c1)c1ncc(-c2ccc(F)cc2)[nH]1 (stereo unspecified)	1.4	nt	nt	nt
CC(C)CC1C(=O)N(Cc2cn(CC3CCCCC3)nn2)CCS(=O)(=O)N1Cc1ccc(-c2ccc(Cl)c(Cl)c2)cc1 (stereo unspecified)	-2.3	nt	nt	nt
O=C(CN1CCNCC1)N1CCOCC1	0.2	nt	nt	nt
COc1ccc(C(=O)OCc2ccccc2C#N)cc1S(=O)(=O)N1CCOCC1	-1.9	nt	nt	nt
CCCS(=O)(=O)NC(=O)C1(C)CCN(C(=O)c2ccccc2Br)C1 (stereo unspecified)	-3.7	nt	nt	nt
COc1cccc(/C=C2\SC(=S)N(CCCC(=O)Nc3cccc(C(=O)O)c3)C2=O)c1	0.2	nt	nt	nt

# New compounds follow.
smiles	HNF4A DNA FP	UCH37 DUB inh	B2AR ag	E coli growth
NC(=O)c1ccsc1NC(=O)COC(=O)Cc1ccc(F)cc1	1.5	nt	nt	nt
COc1ccc(S(=O)(=O)N2CCOCC2)cc1NC(=O)CCCOc1ccc(C(C)=O)cc1	1.3	nt	nt	nt
COCCNC(=O)c1nn2c(C(F)(F)F)cc(-c3ccccc3)nc2c1Br	1.3	nt	nt	nt
O=C(NCc1ccccc1)c1ccc(S(=O)(=O)N2CCCCCC2)cc1	-1.6	nt	nt	nt
ClC1=CN(C2=NCCC2)CC1	-2.5	nt	nt	nt
Nc1ncnc2c1ncn2[C@@H]1O[C@H](C(=O)NS(=O)(=O)c2c(Cl)nc3sccn23)[C@@H](O)[C@H]1O	0.6	nt	nt	nt
O=C(NC(Cc1cn(Cc2ccccc2)cn1)C(=O)O)OCC1c2ccccc2-c2ccccc21 (stereo unspecified)	2.0	nt	nt	nt
O=C1[C@H]2[C@@H](c3ccccc3)N[C@]3(CCCN(Cc4ccc(Br)cc4)C3=O)[C@H]2C(=O)N1Cc1ccccc1	-1.9	nt	nt	nt
CCc1nc2c(OCC(=O)C(C)(C)C)cccn2c1N(C)C(=O)C(C)C	2.5	nt	nt	nt
CCCCNC(=O)c1nc(C2CCN(S(=O)(=O)c3csc(C(=O)O)c3)CC2)oc1-c1ccccc1	2.8	nt	nt	nt
COC(=O)[C@]12CCCCC=C1N(Cc1cccc3ccccc13)C(=O)[C@H](CC(=O)NCC1CCCCC1)C2	0.4	nt	nt	nt
CCCCC1CC2=C(C(=O)OC(C)(C)O2)C(c2ccc3ccccc3c2)O1 (stereo unspecified)	-0.1	nt	nt	nt
CC(C)(C)c1ccc(S(=O)(=O)NC(=O)C2(C)CCN2C(=O)C2(c3ccc(Cl)cc3)CC2)cc1 (stereo unspecified)	-1.4	nt	nt	nt
O=C(CN1C(=O)c2ccccc2C1=O)C(O)CN1C(=O)c2ccccc2C1=O (stereo unspecified)	0.5	nt	nt	nt
COc1ccc(CCNC2=CC(=O)CCC2)cc1OC	0.3	nt	nt	nt
CS(=O)(=O)Nc1cccc(NC(=O)c2cccc3c(-c4cccnc4)coc23)c1	-1.4	nt	nt	nt
O=c1[nH]nc(-c2ccc[nH]2)[nH]1	-1.8	nt	nt	nt
O=C(Nc1cccc(F)c1)c1ccc(-c2cccnc2)c2ccoc12	-0.2	nt	nt	nt
Cc1cc(N2C(=O)C(O)=C(C(=O)c3ccc(C)o3)C2c2cccc(Cl)c2)no1 (stereo unspecified)	1.3	nt	nt	nt
O=C1COC(c2ccccc2O)=NN1CCCl	3.2	nt	nt	nt
CC1(C(=O)NS(=O)(=O)C2CC2)CCCN(C(=O)COc2ccccc2)C1 (stereo unspecified)	-5.6	nt	nt	nt
Cn1cccc1C(=O)OCC(=O)N1CCc2ccccc2C1	2.0	nt	nt	nt

# Compound profiles, as listed above. Order of values: HNF4A DNA FP	UCH37 DUB inh	B2AR ag	E coli growth
# Profile of COC(=O)[C@]12CCCCC=C1N(Cc1cccc3ccccc13)C(=O)[C@H](CC(=O)NCC1CCCCC1)C2 : 0.4	nt	nt	nt
# Profile of Cn1cccc1C(=O)OCC(=O)N1CCc2ccccc2C1 : 2.0	nt	nt	nt
# Profile of O=C1COC(c2ccccc2O)=NN1CCCl : 3.2	nt	nt	nt
# Profile of CCc1nc2c(OCC(=O)C(C)(C)C)cccn2c1N(C)C(=O)C(C)C : 2.5	nt	nt	nt
